Menin-MLL FL inh – qHTS Assay for Inhibitors Targeting the Menin-MLL Interaction in MLL Related Leukemias: Competition With Fluorescein Labeled MLL-derived Peptide; 290,000 tested, under 10 active; FP activity change, % at 61.4 µM; Fluorescence polarization, fluorescein-MLL peptide displacement from menin; inconclusive = falling polarisation curve, or a change in total fluorescence; inactive = total fluorescence flat and polarisation flat or rising; no compound was filed as active; the % refers to the polarisation; negative = inhibition;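 also: % of control where 0% means no effect; inhibitors lower the polarisation; unlabelled MLL peptide was the positive control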
D2 ag – Beta-Arrestin HTS for Positive Allosteric Modulators of the Human D2 Dopamine Receptor: Agonists | DiscoveRx PathHunter D2 beta-arrestin, luminescence, 90 min; 100% = 57 uM dopamine signal | activation, % (test concentration not listed) | hit rate 0.084% among 360,000; in the data active = activation above about 40%; inconclusive = about 15% to 40%; inactive = below about 15%; also: compound concentration not given in the record; the text of the record calls up to 30% inactive
Target sequence (P14416 whole entry, looked up): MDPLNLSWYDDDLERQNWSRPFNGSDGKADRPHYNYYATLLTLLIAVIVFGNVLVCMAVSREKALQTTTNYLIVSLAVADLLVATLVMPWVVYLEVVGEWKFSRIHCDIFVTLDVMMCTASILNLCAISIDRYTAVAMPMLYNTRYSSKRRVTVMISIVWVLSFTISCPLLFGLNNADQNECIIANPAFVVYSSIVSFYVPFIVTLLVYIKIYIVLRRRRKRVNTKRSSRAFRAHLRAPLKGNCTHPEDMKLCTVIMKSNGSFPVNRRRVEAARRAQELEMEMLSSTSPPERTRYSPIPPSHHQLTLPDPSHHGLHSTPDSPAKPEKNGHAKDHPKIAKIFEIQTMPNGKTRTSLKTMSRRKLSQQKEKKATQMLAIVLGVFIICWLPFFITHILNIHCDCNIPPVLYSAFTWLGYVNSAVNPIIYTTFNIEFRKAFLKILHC
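DiscoveRx PathHunter D2 beta-arrestin cells (2,100/well) attached overnight, then compound-stimulated 90 min at 37 C in HBSS/10 mM HEPES/0.1% Tween-20 buffer; beta-galactosidase complementation read by luminescence after 1 h at ambient temperature. Dopamine 57 uM final (EC100) as control.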
PINK1 modulator – A Quantitative High throughput Screen to Identify Chemical Modulators of PINK1 Expression; PINK1 immunofluorescence, high-content cytometry, 24 h; Potency, µM (doses to about 76.6 µM), without a hit: top-dose activation (PINK1 increase), most hits filed as activators; hit rate 0.2% among 410,000; active = well fitted activation curve with a large enough effect; inconclusive = small, poorly fitted or top-dose-only effect; inactive = flat fitted curve, though single readings scatter; cell line not stated here;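 also: potency is read from the fitted curve at half-maximal effect; % of control where 0% means no effect; nearly all actives have a fitted effect of over 65% in size; a mitochondrial uncoupler was the plate control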
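PINK1 protein, normally rapidly degraded, was detected by immunofluorescence after 24 hour compound treatment of a stable cell line. Titration data (5 concentrations) came from laser-scanning cytometry, with CCCP-treated wells as controls.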
Sfp inh – qHTS Assay for Inhibitors of Bacillus subtilis Sfp phosphopantetheinyl transferase (PPTase); Biochemical Sfp PPTase activity, qHTS; Potency, µM, inactives show max response, negative = inhibition, most hits filed as inhibitors; hit rate 3.5% among 310,000; active = well fitted inhibition curve with a large enough effect; inconclusive = small, poorly fitted or top-dose-only effect, or another doubt; inactive = no such curve, though single readings can be large or run the other way;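 also: the enzyme is Sfp with the accession as filed and its product quenches rhodamine fluorescence; potency is read from the fitted curve at half-maximal effect; 0% = enzyme reaction without inhibitor and -100% = no enzyme wells; top concentration of the series not given in the record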
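Fluorescence-quenching assay with 15 nM Sfp, 5 uM rhodamine-CoA and 12.5 uM BHQ-2-labelled ybbR peptide in pH 7.6 Hepes/MgCl2 buffer. Enzyme was pre-incubated with compound for 15 min at room temperature. Rate was taken from the 30-min fluorescence change (525/598 nm).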
gsp ag – qHTS for Agonist of gsp, the Etiologic Mutation Responsible for Fibrous Dysplasia/McCune-Albright Syndrome: qHTS; gsp mutant cells, cAMP HTRF, 30 min; control for the full effect not named in the record; Potency, µM (series often up to 76.9 µM), for the others: top-dose activation (cAMP increase), actives largely listed as activators; hit rate 0.13% among 340,000; AID 624287, 2012; active = well fitted activation curve with a large enough effect; inconclusive = small, poorly fitted or top-dose-only effect, or another doubt; inactive = no such curve, though single readings can be large or run the other way; cell line not stated here;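 also: phosphodiesterase inhibitor Ro 20-1724 added with compounds to block cAMP breakdown; potency is read from the fitted curve at half-maximal effect; nearly all actives have a fitted effect of over 60% in size; about a fifth of the inactives were tested at one dose only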
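Cells stably selected in G418 were plated at 2000/well, grown 16-24 hr, then given compounds in DMSO with the PDE inhibitor […] (300 uM solution added) for 30 min at 37C; cAMP was read by HTRF.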
gsp antagonist – qHTS for Antagonists of gsp, the Etiologic Mutation Responsible for Fibrous Dysplasia/McCune-Albright Syndrome: qHTS; gsp-mutant cells, cAMP HTRF, 30 min; control for the full effect not named in the record; Potency, µM (titrated, usually from 76.9 µM), inactives show top-dose activity change, negative = inhibition, actives largely listed as inhibitors; hit rate 0.4% among 340,000; active = falling curve of any shape with a large fitted effect; inconclusive = falling curve, mostly with a smaller effect; inactive = flat or rising curve; cell line not stated here;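 also: intracellular cAMP measured with PDE inhibitor Ro 20-1724 present during compound exposure; potency is read from the fitted curve at half-maximal effect; % is scaled to controls: 0 for no effect and ±100 for the full control effect; nearly all actives have a fitted effect of over 65% in size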
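HTRF cAMP read-out (cAMP-d2 plus anti-cAMP antibody-K in lysis buffer, 30 min RT). Before lysis, cells are exposed to compounds with […] for 30 min at 37C in DPBS containing Ca/Mg, BSA and Tween 20.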
ClpP mod – qHTS Assay for Activators of ClpP; AID 651965, 2013; purified B. subtilis ClpP, FRET peptide cleavage, 20 min; Potency, µM (highest dose often 57.5 µM), for inactives: at the highest dose activity change, negative = active; hit rate 1.9% among 340,000; ATP-dependent Clp protease proteolytic subunit (Bacillus subtilis (strain 168)), P80244; active = well fitted falling curve with a large enough effect; inconclusive = small, poorly fitted or top-dose-only effect; inactive = no such curve, though single readings can be large or run the other way; also: potency is read from the fitted curve at half-maximal effect; the source files actives as falling curves though it sought activators and does not explain the sign; nearly all actives have a fitted effect of over 65% in size; many hits overshoot -100%
Target sequence (P80244 whole entry, looked up): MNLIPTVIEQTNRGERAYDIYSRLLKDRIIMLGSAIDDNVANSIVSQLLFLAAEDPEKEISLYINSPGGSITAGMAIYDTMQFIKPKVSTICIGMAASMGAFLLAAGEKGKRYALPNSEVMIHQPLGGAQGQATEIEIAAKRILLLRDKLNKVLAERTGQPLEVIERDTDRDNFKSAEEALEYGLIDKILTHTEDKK
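Buffer: 100 mM Tris/HCl pH8, 100 mM KCl, 0.05% low protease BSA, 2.5% glycerol, 0.01% Tween-20. ClpP 10 microg/mL final; 20 min RT; delta FRET normalized to ADEP and DMSO controls.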
* hit, by the source's call; u = inconclusive; x = no result given; [ ] = dose if it differs, or a comment.

Every second line gives: Menin-MLL FL inh	D2 ag	PINK1 modulator	Sfp inh	gsp ag	gsp antagonist	ClpP mod
> O=C1C2C3C=CC(C3)C2C(=O)N1c1ccc(-c2nc3ccccc3c(=O)o2)cc1 (stereo unspecified)
    -0.2	-2.7	1.2%	6.7%	-94.9%[inhibitor]	u	1.3%
> O=C(CN1CCOCC1)Nc1ccc(S(=O)(=O)N2CCCCCC2)cc1
    5.9	-1.1	-2.8%[38.3 µM]	-0.2%	-28.9%	-4.0%	1.2%
> CC(C)[C@H](NC(=O)NCc1ccco1)C(=O)O
    3.9	3.5	2.9%	3.2%	-12.8%	-4.5%	-0.1%
> Cn1cc(Cl)c(C(=O)N(Cc2ccccc2)c2ccccn2)n1
    0.0	-6.2	2.7%	6.9%	-29.3%	8.7%	-0.3%
> Cc1ccc(C(=O)Cn2nc(C(=O)O)c3ccccc3c2=O)cc1C
    -1.0	-3.8	0.0%	-1.6%	-38.3%[inhibitor]	6.7%	2.0%
> O=C(NN(C(=O)c1ccccc1)c1ccccc1)c1ccccc1
    2.6	6.1	-0.8%	13.5%	24.9%[15.4 µM]	10.5%	x
> Cc1cccnc1NC(=O)Cn1c(=O)oc2ccccc21
    x	-1.8	-1.8%	-1.0%	22.7%	16.1%	-3.4%
> Cc1cccc(C)c1NC(=O)CN1C(=O)C2CC=CCC2C1=O (stereo unspecified)
    x	-5.6	0.5%	x	35.4%	0.4%	0.2%
> COC(=O)c1cc(S(=O)(=O)Nc2cc(S(=O)(=O)N(C)C)ccc2C)oc1C
    4.6	3.8	0.9%	3.1%	18.9%	-10.0%	x
> Cc1ccc(-n2c(SCC(=O)NCCC3=CCCCC3)nc3n[nH]c(C)c3c2=N)cc1Cl
    -3.5	3.4	-1.6%	14.5%	u	3.5%	-23.7%
> CCOC(=O)c1c(NC(=S)Nc2ccc(OCC)cc2)sc2c1CCN(C)C2
    u	-3.0	0.7%	15.8µM*	-1.9%[15.4 µM]	-0.7%	0.4%
> O=C(NC1CCCCC1)N1CCC(c2nc3ccccc3[nH]2)CC1
    0.5	-0.1	2.0%[38.3 µM]	3.7%	-0.4%	2.8%	-1.1%
> CC1(C)Cc2c(sc3ncnc(NNC(=S)NCc4ccccc4)c23)CO1
    0.1	u	10.8%	3.2%	-4.7%	13.3%	-0.3%
> Cc1nc(SCc2cccc(C(=O)O)c2)nc2c1CCCC2
    0.1	0.2	-0.8%	-9.0%	12.2%[15.4 µM]	-20.0%	x
> C=CCNC(=S)NNC(=O)c1cccc2ccccc12
    0.6	-4.8	-0.2%	2.1%	0.0%	3.7%	40.2%
> O=C(O)CCCC(=O)NNc1ncnc2ccccc12
    -1.4	1.7	0.3%	-27.2%	8.7%	10.6%	-2.2%
> COc1cc(CCC(=O)OCC(=O)Nc2ccccc2C#N)cc(OC)c1OC
    -2.2	-7.1	1.2%	17.7%	2.8%	1.0%	-10.6%
> C=CCn1c(C)cc(C(=O)COc2ccc(C)nc2[N+](=O)[O-])c1C
    2.6	-0.8	7.7%	-3.6%	8.6%[15.4 µM]	-26.1%	3.98µM*
> O=C(CSc1nccn1Cc1ccco1)Nc1ccccc1F
    0.6	2.5	-0.6%	12.6%	-46.5%[inhibitor]	3.5%	-1.2%
> Cc1cc(N/N=C/c2ccncc2)nc2ccccc12
    -0.7	-1.8	-2.7%	-19.0%	-0.6%	-13.6%	-5.8%
> Cc1ccc(Cn2c(N3CCNCC3)nc3c2c(=O)[nH]c(=O)n3C)cc1
    1.1	-1.8	2.6%	13.6%	-16.3%	-4.7%	-0.3%
> CC[C@@]1(C(=O)OC)N[C@H](CN(C)C(=O)NC(C)C)[C@@H]2C(=O)N(C)C(=O)[C@@H]21
    x	-0.5	-0.9%	x	x	1.3%	0.4%
> CC(=O)NC(c1ccccc1)c1nc(-c2ccccc2C)cs1 (stereo unspecified)
    x	73.4*	1.2%	x	x	x	-4.4%
> Cc1ccc(S(=O)(=O)/N=C2/NC(=O)/C(=C/c3ccc(Br)o3)S2)cc1
    19.2	1.5	-2.0%	3.3%	-86.1%	-11.5%	-8.2%
> Cc1ccc(C(=O)Nc2c(C#N)c(C)c(C)n2Cc2ccccc2)cc1
    3.7	-3.5	14.6%	-18.1%	5.9%	-10.6%	1.0%
> O=C(CNC(=O)c1ccc(Br)o1)NNC(=O)c1ccccc1F
    x	-2.0	2.8%	15.5%	25.3%	11.1%	-2.1%
> CCCc1cc(=O)oc2cc(C)cc(O)c12
    2.2	-3.1	6.9%[38.3 µM]	-1.4%	u	7.6%	-2.6%
> Cc1cc(/C=N/NC(=O)Cn2c3ccccc3c(=O)c3ccccc32)c(C)n1-c1ccc(Cl)cc1
    8.6	-3.5	3.9%	14.3%	-23.5%[15.4 µM]	3.2%	x
> O=C(COC(=O)CCC(=O)c1ccc(Cl)cc1)NC1CC1
    0.6	-2.2	3.3%	17.7%	-42.4%	-5.8%	x
> CN(CCO)c1cc(N2CCCCC2)c2nonc2c1[N+](=O)[O-]
    6.9	0.6	-0.3%	-9.5%	3.1%	-6.7%	x
> O=[N+]([O-])c1cc([N+](=O)[O-])c2cccnc2c1Oc1ccccc1O
    -6.4	-8.9	-0.8%	44.7µM*	u	-8.9%	1.2%
> CSc1sccc1/C=C(/C#N)C(=O)c1ccco1
    -1.2	-2.4	6.2%	-9.2%	-0.1%	-6.2%	x
> COc1cccc2cc(CC(=O)c3cc(C)ccc3C)c(=O)oc12
    -1.5	0.7	1.8%	1.9%	-6.9%	u	-1.0%
> Cc1cc(C)n(CC(O)COc2ccccc2)n1 (stereo unspecified)
    2.9	-6.6	-0.8%	23.1%	u	11.6%	0.2%
> Cc1ccc(S(=O)(=O)CCC(=O)Nc2cc(C)on2)cc1
    x	-1.8	-0.5%	x	-62.7%[inhibitor]	x	-2.5%
> O=C(COc1ccc(Cl)cc1)Nc1ccc2c(c1)CCC2
    -0.9	-1.5	-1.0%	-5.7%	0.2%	-1.1%	-2.6%
> O=C(CN1C(=O)c2ccc([N+](=O)[O-])cc2C1=O)NC1CCCCCC1
    x	6.7	-5.7%	x	20.8%	-2.9%	1.2%
> CCc1cc2c(cc3c(=O)n(CC(=O)N4CCN(C)CC4)ncn32)s1
    x	-4.2	-1.0%	21.0%	29.5%	2.2%	-2.9%
> Cc1ccc(NC(=O)CSCC(N)=O)cc1C
    2.9	0.0	3.0%[38.3 µM]	16.4%	0.2%	1.9%	-0.3%
> N#Cc1ccc(Oc2ccc(C#N)c(C#N)c2)cc1C#N
    x	-2.9	0.4%	x	1.6%	6.7%	x
> Cc1ccc(NC(=S)NC(=O)C2CC2)c(C)c1
    x	-4.2	4.1%	17.5%	-22.8%	-16.5%	0.5%
> CCCn1c(=S)[nH]c2cc(C(=O)N3CCN(C(=O)OCC)CC3)ccc2c1=O
    1.4	0.8	0.7%	-16.8%	-40.5%[inhibitor]	u	-0.4%
> CCC1CCCCN1C(=O)c1ccc(OC)c(OC2CCN(C(C)=O)CC2)c1 (stereo unspecified)
    -1.5	-3.7	0.6%	6.8%	-10.4%[15.4 µM]	-2.9%	-1.9%
> O=c1c(Cl)c(NCc2ccco2)cnn1C12CC3CC(CC(C3)C1)C2
    10.3	-0.7	0.2%	-17.5%	-12.6%	-3.7%	0.9%
> Cn1c(/C(C#N)=C/c2ccc(-c3ccc(S(N)(=O)=O)cc3)o2)nc2ccccc21
    u	6.4	11.4%	5.7%	-12.6%	-19.0%	-3.3%
> CCn1cc(C(=O)O)c(=O)c2cc(F)c(N3CCN(S(=O)(=O)c4ccc(NC(=O)OC)cc4)CC3)cc21
    0.7	-2.3	31.6µM*	3.0%	18.2%	-2.2%	17.8µM*
> CC(=O)NC1(C(F)(F)F)NC(=O)N(C2CCCCC2)C1=O (stereo unspecified)
    7.0	-2.1	x	2.0%	-22.9%	5.6%	-0.2%
> CC1(C(=O)NS(=O)(=O)c2ccccc2Cl)CCN1C(=O)C1(c2ccccc2)CCCC1 (stereo unspecified)
    x	0.4	2.9%	x	x	x	1.0%
> Cc1ccc(S(=O)(=O)N(C)C)cc1NC(=O)C(C)OC(=O)C1CCCCC1 (stereo unspecified)
    x	-2.1	0.4%	x	6.2%[15.4 µM]	3.6%	0.0%
> CC(NC(=O)CN1C(=O)c2ccccc2C1=O)c1ccccc1 (stereo unspecified)
    -29.0	-2.5	-1.9%	-3.2%	u	-13.6%	-4.1%

The listing continues.
Every second line gives: Menin-MLL FL inh	D2 ag	PINK1 modulator	Sfp inh	gsp ag	gsp antagonist	ClpP mod
> CC(=O)Nc1ccc(C(=O)CN2CCN(c3ccccc3)CC2)cc1
    -7.9	2.3	-2.0%	-17.6%	27.9%	5.5%	x
> CCOC(=O)C1=C(COC(=O)c2cc(OC)c(OC)cc2[N+](=O)[O-])NC(=O)NC1C (stereo unspecified)
    x	-2.5	0.6%	x	16.7%	5.6%	-1.2%
> COc1cccc(CNC2CCCC2)c1
    -0.5	0.6	13.2%[38.3 µM]	-3.3%	-9.6%	-28.8%	-0.4%
> O=C(Cn1ccc([N+](=O)[O-])n1)N1CCCCC1
    -0.5	-2.3	1.0%	22.5%	0.3%	10.4%	-1.0%
> Cc1cc2nc(CCN(C(=S)NCC(C)C)C3CCCC3)[nH]c2cc1C
    3.6	0.6	4.3%[38.3 µM]	19.3%	-55.2%[inhibitor]	u	0.3%

Screening results: PubChem BioAssay, National Center for Advancing Translational Sciences (NCATS)
